# Screening data from PubChem.
# RN4220 kill = S. aureus RN4220 growth inhibition. inhibition, % (no concentration beside the values). 330,000 compounds, 0.33% hits. OD600, 16 h;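 active = z-score of -3 or lower and OD600 up to 0.18 on both plates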;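 also: plate controls were untreated cells for no effect and reference antibiotic for full effect; stock transfer was 100 nL into about 80 µL; one replicate is shown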
# BJeLR viability = kills HRASV12-expressing BJeLR cells | BJeLR (HRASV12) viability, CellTiter-Glo ATP luminescence, 48 h; reference of the scale not given here | inhibition, % (no concentration beside the values) | 300,000 compounds, 0.17% hits;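 active = replicate mean above 50%; inconclusive = above 50% but judged a plate artefact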;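 also: 50 nL library stock added to about 25 µL; numbers are from one replicate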
# Sa ugtP lethal = compounds lethal to S. aureus RN4220 ugtP deletion mutant; OD600 growth, 16 h; some inactives read as strong as hits; growth inhibition, % (concentration not given with the values); 330,000 compounds, 0.54% hits; AID 1259309;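 active = z-score under -3 and OD600 up to 0.15 on both plates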;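 also: plate controls were untreated wells for no effect and antibiotic for full effect; wells of about 80 µL received 100 nL stock; the first replicate is given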
# Autofluor counter = counter-screen for toxin protease inhibitors: compound fluorescence; 360,000 compounds, 3.1% hits; compound autofluorescence counterscreen, microsphere flow cytometry; stronger effect = higher value; fluorescence intensity (concentration not given with the values);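 active = at least 3 SD above the mean of all compounds, about 16000 in these data; inconclusive = too few beads counted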;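 also: 100 nL of 1 mM stock went into each well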
# Mtb hypoxia inh = reduces hypoxia-regulated biosensor signal in M. tuberculosis | M. tuberculosis hypoxia-regulated fluorescent reporter, fluorescence | fluorescence inhibition, % (concentration not given with the values) | 300,000 compounds, 0.1% hits | AID 1159583;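 active = 35 to 45% if threefold the growth effect, above 45% if 1.5-fold the growth effect; inactive = the rest, general growth blockers included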;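 also: wells of about 50 µL received 100 nL stock; 0% = vehicle wells and 100% = reference inhibitor wells; whole bacteria with a GFP reporter of the hypoxia response; strong numbers were not always called active; many hits fall short of the cut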
# PrP UTR inh = suppresses PrP 5' UTR mRNA reporter expression. AID 488862. inhibition, % (no concentration beside the values). 340,000 compounds, 0.35% hits. cell-based PrP 5' UTR mRNA reporter, plate reader;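 active = every replicate at 50% or more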;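 also: 0 = median of the neutral control wells; tested in H4 reporter cells; numbers are from one replicate; inactives centre near -14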
# Mtb hypoxia inh growth = further read-out of Mtb hypoxia inh, marked with its call; growth inhibition, %; measured here: M. tuberculosis growth (absorbance);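 0% = vehicle and 100% = reference antibiotic; read after six days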
# * = called active by the depositor; ? = inconclusive; / = not tested or not shown.
nr	molecule	PrP UTR inh	Autofluor counter	Mtb hypoxia inh	RN4220 kill	BJeLR viability	Mtb hypoxia inh growth	Sa ugtP lethal
1	O=C(O)C1C2C=CC(CC2)C1C(=O)O (stereo unspecified)	-3	6735	14	0.8	-5	10	2
2	C/C(=N\OCC(=O)NC12CC3CC(CC(C3)C1)C2)c1cc2ccccc2o1	-33	2628	/	/	-16	/	/
3	COc1ccc(CNC(=O)CN2C(=O)CSc3ccc(S(=O)(=O)N4CCOCC4)cc32)c(OC)c1	0	?	1	2.4	-8	8	4
4	O=C(NC12CC3CC(CC(C3)C1)C2)c1cc(F)c(F)cc1Cl	-4	3327	8	2.6	2	4	-1
5	Cc1cc(C)c(S(=O)(=O)N2CCC3(CC2)OCCN3S(=O)(=O)c2cccs2)c(C)c1	-33	5897	5	1.1	0	-4	8
6	COc1ccc(NC(=O)c2c(C)nn(-c3ccccc3)c2Cl)cc1	-34	4106	10	3.4	-13	20	9
7	COC(=O)C1NC(C(NC(=O)COc2ccccc2)C(=O)Nc2ccc(OC)cc2)SC1(C)C (stereo unspecified)	/	/	10	5.5	/	6	-8
8	COc1ccc(C(=O)N(C)C2(C)CCS(=O)(=O)C2)cc1OC (stereo unspecified)	-21	?	5	-2.4	1	-2	10
9	CC(=NNC(=O)c1c(Cl)c(C)nn1C)c1cccc(NC(=O)c2cccc(F)c2)c1	/	/	9	3.6	/	6	9
10	O=C(NCC(c1ccc(F)cc1)N1CCOCC1)c1cccnc1Sc1ccccc1 (stereo unspecified)	-19	5888	4	3.0	-14	4	7
11	COc1ccccc1NC(=O)CSc1nnnn1-c1ccc2c(c1)OCO2	-1	8345	12	12	-1	10	-1
12	CCC(=O)Nc1c(-c2cccs2)c(=O)c2ccccc2n1C	-14	4280	8	3.1	6	7	4
13	CCCCn1c(N)c(N(Cc2ccccc2OC)C(=O)CCC(C)C)c(=O)[nH]c1=O	-5	6301	-2	0.1	-10	-12	2
14	O=C(c1cccs1)c1cn(Cc2ccccc2Cl)c2ccccc12	-13	8978	7	-6.3	8	6	-12
15	Cn1c(-c2ccccc2)cnc1NCc1ccccc1	-3	/	1	4.1	-1	-1	4
16	Nc1ccc(C(=O)NN=C2CCCc3c2[nH]c2ccccc32)cc1	/	/	8	8.3	/	11	1
17	COc1ccc(Nc2ccc(S(=O)(=O)N3CCCCC3)cc2[N+](=O)[O-])cc1OC	-16	1742	-2	5.0	15	-3	0
18	Cc1ccc(-c2ccc(/C=C(\C#N)C(N)=S)o2)c([N+](=O)[O-])c1	-13	?	14	5.9	/	2	-2
19	O=C(CCNC(=O)c1ccc(Cl)cc1)Nc1ccc(F)cc1F	-7	1975	-5	6.0	-2	1	18
20	O=C(COC(=O)c1ccco1)Nc1ccccc1	-4	2938	8	-13	3	-1	-5
21	COC(=O)CC1c2cc(C(F)(F)F)ccc2S(=O)(=O)N1c1ccc(N(C)C)cc1 (stereo unspecified)	/	/	13	5.0	/	16	0
22	CC(C)Oc1ccc(S(=O)(=O)N2CCOCC2)cc1NC(=O)C1COc2ccccc2O1 (stereo unspecified)	-4	6494	-1	-0.8	/	7	-2
23	CN(C(=O)/C=C/c1ccco1)c1ccccc1C(=O)O	-11	4269	11	4.8	7	12	3
24	CCN(C(=O)Cn1c(=O)n2nc(CCn3nc(C)cc3C)nc2c2ccccc21)c1cccc(C)c1	-23	11098	7	5.4	/	4	1
25	OCc1ccc2c(c1)c(-c1ccc3c(c1)OCCO3)c(-c1ccccc1)n2-c1ccccc1	-25	3394	20	-13	/	6	0
26	O=C(CN1CCN(S(=O)(=O)N2CCOCC2)CC1)Nc1ccc(Cl)c(Cl)c1	-7	3276	5	3.2	-1	-6	-1
27	CCC1=NN2C(=N)/C(=C\c3cccn3-c3ccc(OC)cc3)C(=O)N=C2S1	-27	2483	/	/	15	/	/
28	COCCC(=O)N1CCC(Oc2ccc(C(=O)NCc3csc(C)n3)cc2)CC1	-23	5425	1	0.1	3	8	5
29	COC(=O)c1sc(-c2ccc(C(C)(C)C)cc2)cc1NC(=O)CSCC(=O)O	-21	?	/	/	-5	/	/
30	O=C(NN=C1CCSC1)c1cccc([N+](=O)[O-])c1	/	/	4	6.1	/	2	-1
31	COc1ccc2cc(C(=O)C3CCCN(C(=O)c4cc(=O)n(C)c(=O)n4C)C3)ccc2c1 (stereo unspecified)	-24	4390	/	/	-2	/	/
32	CCc1ccc(OCCCC(=O)Nc2ccc(N3CCCCC3)cc2)cc1	-3	5583	/	0.2	-1	/	6
33	Cc1cc(C(=O)NN=Cc2ccc(-c3ccc(C)c(Cl)c3)o2)n[nH]1	/	/	17	3.9	/	14	-4
34	COc1ccc2[nH]c3c(c2c1)CCN1C(=O)C(CC(=O)NCCCn2ccnc2)C[C@H](C(=O)N2CCCCC2)[C@@]31C (stereo partly specified)	-27	3000	-11	2.8	/	3	0
35	CN1C(=O)C(CC(=O)Nc2ccc3c(c2)Cc2ccccc2-3)N(C)C1=O (stereo unspecified)	-33	3477	/	0.9	-6	/	5
36	CN(C)S(=O)(=O)c1cccc(NC(=O)/C=C/c2ccc(S(=O)(=O)N3CCOCC3)cc2)c1	-17	3313	-4	1.7	/	6	0
37	CCc1cc2c3c(c(=O)oc2cc1O)CCCC3	1	4045	/	11	-7	/	-9
38	O=C(Nc1ccc2c(c1)CCC2)c1cc2ccccc2o1	-137	4903	11	7.1	-3	13	4
39	NC(=O)[C@@H]1CCCN1C(=O)c1ccc2nc(Cc3ccccc3F)oc2c1	-13	6077	3	3.6	1	0	8
40	CC(=O)c1noc(C)c1C(=O)Nc1nccs1	-26	2682	/	-0.3	-1	/	1
41	CCc1nnc(NC(=O)CN2C(=O)NC3(CC(C)CC(C)(C)C3)C2=O)s1 (stereo unspecified)	-11	5673	-2	1.8	8	8	1
42	COc1ccccc1Nc1nc2c(s1)CCC2	-29	4450	/	0.5	-13	/	-1
43	Cc1cc(=O)n(CCCO)c(O)c1C#N	-21	2630	/	2.0	2	/	1
44	CC(=O)NCc1ccc(C(=O)COC(=O)COc2ccc(Cl)c(C)c2)s1	-11	2781	-2	7.2	/	2	7
45	O=C(NCc1ccccn1)c1ccc(Cl)s1	-30	6009	15	7.8	-5	16	5
46	O=C(NN=C1CN2CCC1CC2)c1cc2ccccc2cc1O	/	/	8	-1.6	/	9	-9
47	COc1ccc(NC(=O)c2cc(-c3cc(Cl)ccc3O)n[nH]2)c(OC)c1	-46	3481	5	0.6	11	5	4
48	Cc1cc(NS(=O)(=O)c2ccc(NC(=S)NC(=O)c3cccnc3)cc2)no1	-24	4632	23	3.3	-6	34	9
49	Cc1cnc([N+](=O)[O-])n1CCOC(=O)c1cccc(F)c1	4	3101	6	2.5	-5	-2	6
50	O=C(C1=C(O)C(=O)N(Cc2ccco2)C1c1cccc(Cl)c1)c1ccco1 (stereo unspecified)	-18	4221	5	24	-4	-1	5

# Further compounds.
nr	molecule	PrP UTR inh	Autofluor counter	Mtb hypoxia inh	RN4220 kill	BJeLR viability	Mtb hypoxia inh growth	Sa ugtP lethal
51	CC(=O)OCC(=O)C1(O)CCC2C3CC(C)C4=CC(=O)CCC4(C)C3C(O)CC21C (stereo unspecified)	-24	3798	15	-1.3	/	9	-4
52	Cc1nn(C)c(C)c1CS(=O)(=O)c1ccccc1	-20	4548	13	0.2	-12	6	0
53	CC(C)N(C(=S)Nc1cccnc1)c1ccccc1	-13	4180	0	3.3	-3	-6	16
54	CC(=O)c1cccc(NC(=O)NC2CC3CCCC(C2)N3CC(C)C)c1 (stereo unspecified)	-13	6575	8	1.1	11	1	6
55	CC(C)Oc1c(Br)cc(Br)cc1/C=N/NC(N)=S	-35	9034	/	/	5	/	/
56	O=C(NCc1cccnc1)C(=O)NCC1OCCCN1S(=O)(=O)c1ccc(Cl)cc1 (stereo unspecified)	-20	2552	1	0.5	-4	3	4
57	CCOc1ccc(OCc2ccc(C(=O)Nc3cccc(C)n3)o2)cc1	-34	6434	8	18	7	6	-4
58	Cc1ccc(N2C(=O)NC(=O)/C(=C\c3cccn3C(C)(C)C)C2=O)cc1	-25	2567	-7	-0.4	-8	-1	3
59	CC12C=CC(=O)CC1CCC1C2CCC2(C)C(O)C(O)CC12 (stereo unspecified)	-27	3944	11	2.3	/	6	-1
60	Cc1ccc(NC(=O)c2c(C)nn(-c3ccccc3)c2Cl)cc1	-25	8991	10	6.7	7	12	-3
61	Cc1n[nH]c(=O)n1-c1ccc(OCc2ccccc2)cc1	-55	4006	7	5.2	-2	8	5
62	O=C(CN1C(=O)c2ccccc2C1=O)c1ccc(F)cc1	-13	3920	9	4.1	2	4	21
63	CC(C)OCc1ccc(C(=O)N2CCN(CC(=O)N3CCCC3)CC2)cc1	-4	5204	2	2.3	/	5	4
64	O=C(/C=C/c1cccc(C(F)(F)F)c1)Nc1cccc(C(F)(F)F)c1	-8	8851	3	100*	3	-1	100*
65	O=C1CCC([N+](=O)[O-])C(c2ccc(Cl)c([N+](=O)[O-])c2)N1 (stereo unspecified)	-24	5052	6	3.1	-14	7	7
66	Cc1cc(C(=O)CSc2nnc(-c3ccc(OC(F)F)cc3)o2)c(C)n1Cc1cccs1	-18	6945	10	3.6	-3	1	-19
67	O=C(Cn1cc(C(F)(F)F)ccc1=O)N1CCc2ccccc21	-15	/	1	4.3	/	-3	4
68	O=C(c1ccccc1Sc1cccc2ccccc12)N1CCOCC1	7	4690	/	3.1	-3	/	-3
69	CCCCOc1ccc(C(=O)N2CCCCCC2)cc1	-11	2495	-6	-0.2	8	11	-7
70	O=C(Nc1ccccc1-c1ccccc1)NC1CCN(CC(=O)N2CCOCC2)CC1	-17	4084	5	1.2	5	5	7
71	Cc1ccc2c(c1)N(C(=O)CCC(=O)Nc1ccccc1Br)CC(C)O2 (stereo unspecified)	4	4395	-1	17	-2	7	6
72	CSc1ccc(N2C(=O)NC3(CCCCC3)C2=O)cc1	-70	3128	/	-1.9	2	/	-6
73	O=C(O)COc1ccc(C=NNC(=O)/C(=C/C=C/c2ccccc2)NC(=O)c2ccccc2)cc1	/	/	-12	-0.7	/	-6	4
74	Cc1ccc(/C=N/NC(=O)C2=NNC(c3ccccc3)(c3ccccc3)C2)c(O)c1	18	2804	/	/	-6	/	/
75	O=C1CCCC(O)=C1C1NCCc2ccccc21 (stereo unspecified)	-7	2881	11	1.6	-11	3	1
76	COc1ccc(C2C(C#N)=C(N)OC3=C2C(=O)CCC3)c(OC)c1OC (stereo unspecified)	-9	6068	4	2.7	-4	2	4
77	COc1cccc(CC2(CO)CCCN(Cc3cc(F)ccc3-n3cccn3)C2)c1 (stereo unspecified)	-4	5338	-3	-2.7	7	1	-6
78	CSc1nc(-c2ccccc2)nn1C(=O)c1ccc(Cl)cc1	-22	4067	/	-0.5	7	/	5
79	Cn1ccnc1SCc1nc2c(cnn2-c2ccccc2)c(=O)[nH]1	-33	10844	16	5.8	-3	13	16
80	Cn1c(CSCc2ccc(Cl)cc2Cl)n[nH]c1=S	-25	4794	9	4.7	9	9	2
81	CC(=NNC(=S)Nc1cccc(C)c1)c1cccc(N)c1	/	/	3	0.3	/	-12	-1
82	COc1ccccc1CCC(=O)OCC(=O)Nc1c(Br)cc(C)cc1Br	-15	6066	9	2.8	-2	-1	-3
83	CCCOc1cccc(C(=O)NCCNC(=O)c2ccc(C)nc2)c1	12	4777	4	4.3	-2	2	-1
84	Cc1ccc(C)c(S(=O)(=O)NCCCc2ccccc2)c1	-12	5739	7	4.3	-5	3	-5

# Part of the list above in order of count of non-hydrogen atoms, high to low:
nr	molecule	PrP UTR inh	Autofluor counter	Mtb hypoxia inh	RN4220 kill	BJeLR viability	Mtb hypoxia inh growth	Sa ugtP lethal
76	COc1ccc(C2C(C#N)=C(N)OC3=C2C(=O)CCC3)c(OC)c1OC (stereo unspecified)	-9	6068	4	2.7	-4	2	4
79	Cn1ccnc1SCc1nc2c(cnn2-c2ccccc2)c(=O)[nH]1	-33	10844	16	5.8	-3	13	16
78	CSc1nc(-c2ccccc2)nn1C(=O)c1ccc(Cl)cc1	-22	4067	/	-0.5	7	/	5
81	CC(=NNC(=S)Nc1cccc(C)c1)c1cccc(N)c1	/	/	3	0.3	/	-12	-1
80	Cn1c(CSCc2ccc(Cl)cc2Cl)n[nH]c1=S	-25	4794	9	4.7	9	9	2
